# H5N1 antiviral = MDCK cell protection from H5N1 avian flu; cytopathic effect, luminescence, 72 h; stronger effect = higher value; no value below 0 was filed and about half of the inactive calls have no number; reference of the scale not given here; inhibition, % at 50 µM; 0.07% of 96,000 active; AID 740; in the data active means inhibition above about 25%
# * hit, by the source's call; i = inactive. A portion of the library; count on the stated rates, not on these rows.
SMILES,H5N1 antiviral
CCCC(=O)NC(Oc1ccc(Cl)cc1Cl)C(Cl)(Cl)Cl (configuration not stated),0.3
C=CCn1c(SCC(=O)Nc2ccccc2C)nnc1-c1ccncc1,1.0
Cc1cc(N2C(=O)CC(N3CCC(n4c(=O)[nH]c5ccccc54)CC3)C2=O)no1 (configuration not stated),0.3
CC1=NOC(=O)/C1=C\c1ccc(-c2cc(Cl)ccc2Cl)o1,i
COC(=O)CSc1nc2c(c(-c3ccco3)c1C#N)CCCC2,2.6
CCN1C=C(Cc2ccc(F)cc2)C2=C(C1)C(c1ccc(F)cc1)C(C#N)=C(N)O2 (configuration not stated),i
CCCCN1C(=O)/C(=C2/C=CC=CN2C)SC1=S,i
CC(=O)Nc1ccc(S(=O)(=O)N(C)CC(=O)NC2=NCCS2)cc1,0.9
CCO/C(C)=N/n1c2nc3ccccc3nc2c2c(=O)n(Cc3ccccc3Cl)c(C)nc21,1.8
COc1cc(OC)cc(-c2cc3nc(C)c(CCC(=O)O)c(C)n3n2)c1,0.1
CC(C(=O)NCC1CCCO1)n1cccc1C(=O)c1ccccc1 (configuration not stated),i
CC(C)Cc1ccc(C(C)C(=O)N2CCOCC2)cc1 (configuration not stated),i
COC(=O)Cc1[nH]nc2c1C1(CCSCC1)C(C#N)=C(N)O2,i
Cc1ccc(-c2nn(CC(=O)N(C)C)c(=O)c3ccccc23)cc1S(=O)(=O)N(C)C,0.4
CN(CC(=O)Nc1nc2ccccc2s1)S(=O)(=O)c1ccc(Cl)cc1,i
Cc1nc2cccc(C)n2c(=O)c1Cl,0.2
COc1ccccc1CC1(C)NC(=O)N(CC(=O)N2CC(C)OC(C)C2)C1=O (configuration not stated),i
CC(OC(=O)CNC(=O)c1ccc2c(c1)OCO2)C(=O)NCCC1=CCCCC1 (configuration not stated),0.1
Cc1ccccc1N1C(=O)[C@@H]2Cc3ccccc3CN2C1=O,i
Cc1nnc(SCc2ccccc2C#N)n1-c1ccccc1,1.4
CCCCC(=O)Nc1ncc2c(n1)CC(C)(C)CC2=O,i
COC(=O)NCC1(C)CC(NC(=O)OC)CC(C)(C)C1 (configuration not stated),i
O=C(c1ccncc1)N1CCN(C(=O)c2ccncc2)CC1,i
C=CCOc1c(Br)cc(C2NC(=O)NC(C)=C2C(C)=O)cc1OCC (configuration not stated),i
CCOC(=O)CSc1ncc(-c2cccc(Cl)c2)cn1,0.7
# The results go on.
SMILES,H5N1 antiviral
CCS(=O)(=O)N1CCCC(C(=O)NC2CCCCC2)C1 (configuration not stated),i
Cc1nc2ccc(NC(=O)c3sccc3C)cc2s1,0.0
O=S(=O)(NCc1ccccc1)c1ccc(S(=O)(=O)N(Cc2ccccn2)Cc2ccco2)cc1,i
CCOC(=O)N1CCN(C2CC(=O)N(c3ccc(Oc4ccccc4)cc3)C2=O)CC1 (configuration not stated),i
CCC(C)NS(=O)(=O)c1ccc(OC)c(Cl)c1Cl (configuration not stated),1.1
CC1CN(C(=O)CSc2nnc(-c3ccc(Cl)cc3)n2C)CC(C)O1 (configuration not stated),i
c1ccc(-c2nn3c(C4CCCCC4)nnc3s2)nc1,i
CNC(=O)Nc1ccccc1C(=O)NCc1ccccc1,0.6
Cc1ccc(C(=O)C2CCN(CC(=O)Nc3nc(C)cs3)CC2)cc1,i
CC(C)OC(=O)c1ccc(NC(=O)c2ccco2)cc1,i
CCOc1ccc(N2C(=O)CC(N3CCN(C4CCc5ccccc5C4)CC3)C2=O)cc1 (configuration not stated),i
COc1ccc(-c2noc(CCC(=O)Nc3cc(OC)ccc3OC)n2)cc1,i
COc1ccc(Oc2coc3cc(OC(=O)N4CCOCC4)ccc3c2=O)cc1,0.8
COC(=O)c1cc(Br)ccc1OC(=O)c1cccnc1,i
O=C(NCc1ccc(Cl)cc1)c1noc2c1CCCCC2,i
C=CCN(CC=C)CC(O)Cn1c2ccccc2c2ccccc21 (configuration not stated),i
COC(=O)c1ccccc1NC(=O)COC(=O)c1cccnc1,0.4
N#Cc1nc(-c2cccs2)oc1NCc1ccco1,2.4
CCOC(=O)C1CCCN(Cc2c(Cl)cccc2Cl)C1 (configuration not stated),i
COc1ccc(CNc2ccc3c(c2)ncn3-c2ccccc2OC)cc1,0.1
CCC(CO)NC(=O)c1cccc(S(=O)(=O)N2c3ccccc3CC2C)c1 (configuration not stated),0.7
C/C(=N/NC(=O)c1ccc2c(c1)OCO2)c1cccc(NC(=O)C(C)(C)C)c1,0.4
Fc1cc(Br)ccc1Nc1nc2ccccc2n2nnnc12,0.8
CCOC(=O)n1c(SCC(=O)N(CC)CC)nc2ccccc21,i
Clc1ccccc1Cn1nnc2c(NCC3CC3)ncnc21,i

# 5 compounds picked at random from those above:
SMILES,H5N1 antiviral
COC(=O)NCC1(C)CC(NC(=O)OC)CC(C)(C)C1 (configuration not stated),i
CCS(=O)(=O)N1CCCC(C(=O)NC2CCCCC2)C1 (configuration not stated),i
Clc1ccccc1Cn1nnc2c(NCC3CC3)ncnc21,i
COC(=O)CSc1nc2c(c(-c3ccco3)c1C#N)CCCC2,2.6
CC(=O)Nc1ccc(S(=O)(=O)N(C)CC(=O)NC2=NCCS2)cc1,0.9

# (next part)
SMILES,H5N1 antiviral
COc1ccccc1Nc1nc(-c2sc(NC(=O)c3ccccc3)nc2C)cs1,0.2
O=P1(Nn2cnnc2)C=C(c2ccccc2)OC(c2ccccc2)=C1,0.1
CC(=O)Nc1ccc(S(=O)(=O)N2CCc3c(Cl)cccc3C2)cc1,3.2
O=C(CN1C(=O)C2CC=CCC2C1=O)Nc1nc2ccccc2[nH]1 (configuration not stated),0.1
COC(=O)C1=C(N)c2c(F)cccc2C1(C#N)c1ccc(F)cc1 (configuration not stated),2.4
Cc1ccccc1OCc1nnc(SCC(=O)Nc2ccc3c(c2)OCO3)n1C,i
NC(=O)Cn1c(=O)n(Cc2ccco2)c(=O)c2c3c(sc21)CCCCC3,0.6
COc1cc(C2N(c3cc(C)on3)C(=O)C3CCCN32)cc(OC)c1OC (configuration not stated),i
COc1ccc(N2C(=O)CC(N3CCC(O)(c4ccc(Br)cc4)CC3)C2=O)cc1 (configuration not stated),0.6
Cc1nc(SCC(=O)Nc2ccnc3ccccc23)n[nH]1,0.4
Clc1ccc(C2=Nn3c(nnc3-c3cccnc3)SC2)s1,5.6
CCc1ccc2c(COC(=O)c3n[nH]c4ccccc34)cc(=O)oc2c1,0.5
O=C(c1cc(-c2ccc(Cl)c(Cl)c2)on1)N1CCN(c2ccccc2)CC1,0.2
N/C(=N\OC(=O)c1ccc(F)cc1)c1ccccc1,i
Fc1ccccc1CCNc1nnnn1-c1ccccc1,i
Cc1ccc(CNC(=O)C2(C)Oc3ccccc3NC2=O)cc1 (configuration not stated),i
CCn1nnnc1-c1ccc(OC)c(S(=O)(=O)NCc2ccccc2)c1,0.5
COc1ccc(-c2csc(Nc3ccc(S(N)(=O)=O)cc3)n2)cc1,2.5
COC(=O)NNC(=O)c1ccccc1C,i
COC(=O)C(C(=O)OC)C(C[N+](=O)[O-])c1ccc(OC)cc1 (configuration not stated),i
COc1ccc2nc(/N=C\N(C)C)sc2c1,1.2
CC(=O)N1CCCc2cc(S(=O)(=O)N(C)CCC#N)ccc21,1.1
CCOc1ccc(/C(O)=C2/C(=O)C(=O)N(Cc3cccnc3)C2c2ccc(N(C)C)cc2)c(C)c1 (configuration not stated),0.2
Cc1ccc2oc(=O)c3cnn(CC(=O)N4CCN(c5ccccn5)CC4)c3c2c1,2.7
COC(=O)c1cccc(NC(=S)NCCC2=CCCCC2)c1,i
# (list continues)
SMILES,H5N1 antiviral
CCOC(=O)c1sc(NC(=O)c2cc(-c3ccc(C)cc3)nc3ccccc23)c(C#N)c1C,1.6
CCn1c(SCC(=O)c2ccc(NS(=O)(=O)c3ccccc3)cc2)nnc1-c1cccs1,0.7
Cn1cc(SCC(=O)Nc2nccs2)c2ccccc21,0.1
COCCn1nnnc1C(c1cc(OC)ccc1OC)N1CCc2ccccc2C1 (configuration not stated),0.6
O=C1Nc2ccc(Br)cc2C1=Nc1ccc(-c2nnc3n2CCCCC3)cc1,i
COc1cccc(-c2cc(C(=O)Nc3cnn(Cc4ccc(F)cc4)c3)no2)c1,i
CCC1CCCCN1Cc1nc2c(c(=O)n(C)c(=O)n2C)n1Cc1ccccc1 (configuration not stated),2.2
O=C(Oc1cccc(-n2cnnn2)c1)c1sc2ccccc2c1Cl,i
CCOC(=O)c1c(C)c(C(=O)NCCCN2CCCC2=O)c(C)n1CC,i
COC(=O)/C=C1/SC(=Nc2ccc(C)cc2C)NC1=O,8.7
CCNc1nc(NCC)n2c(SCc3ccc(F)cc3)nnc2n1,3.8
CCOC(=O)C(=O)/C(=C\N(C)C)c1onc(-c2c(Cl)cccc2Cl)c1C(=O)OC,0.2
O=C(NC1CCCC1)C(c1ccncc1)N(CC1CCCO1)C(=O)Cn1nnc(-c2cccs2)n1 (configuration not stated),1.1
O=C(Nc1cccnc1)c1ccc(COc2ccccc2Cl)o1,1.3
O=C(O)c1cc(N2C(=O)C3CC=CCC3C2=O)ccc1NCc1cccnc1 (configuration not stated),i
COC(=O)/C(=C/c1c[nH]c2ccccc12)[N+](=O)[O-],1.7
COc1ccc(-c2cc(CNC(C)=O)on2)cc1,0.1
CSCC[C@@H](C(=O)Nc1ccc2c(c1)OCCO2)N1Cc2ccccc2C1=O,i
NC(=O)CSc1c[nH]c2ccccc12,i
COc1cc(C2N=C(c3ccccc3)NO2)cc(Br)c1O (configuration not stated),1.1
COc1cc(C(c2nnnn2C(C)(C)C)N2CCN(c3nc4ccccc4s3)CC2)ccc1O (configuration not stated),i
CC(C)(C)C(=O)NC(=S)Nc1cc(C(=O)O)ccc1Cl,i
Cc1ccc2c(c1)cc(C)c1nnc(SCC(=O)NCc3ccco3)n12,10
Cc1cc(C)n(-c2nncn2/N=C/c2ccccc2F)n1,i
COc1cccc2sc(Nc3nnc(-c4cccs4)o3)nc12,i
# Remaining list, next part
SMILES,H5N1 antiviral
CC(C)=CCC/C(C)=C/CN(CC(C)O)CC(C)O (configuration not stated),i
CN(C)S(=O)(=O)N1CCN(C(=O)c2ccccc2Cl)CC1,i
C=CCc1cccc(/C=N/c2nc3ccccc3n2CC)c1O,0.3
COc1ccc(-c2nn(-c3ccccc3)cc2C#N)cc1,i
CN(C)Cc1nc2c([nH]1)c(=O)n(C)c(=O)n2C,0.8
CCCCn1c(N)c(C(=O)OCC2CCCO2)c2nc3ccccc3nc21 (configuration not stated),i
CCNC(=S)Nc1cccc(Cl)c1C,i
CCC(C)NC(=O)C1CCCCN1S(=O)(=O)c1ccc(F)cc1 (configuration not stated),0.9
CCOC(=O)c1cc2ccccc2nc1C,i
CCCC(c1nnnn1Cc1ccccc1)N1CCC(C(N)=O)CC1 (configuration not stated),i
Cc1ccc(-c2cc(C(=O)NCc3ccco3)no2)cc1,0.0
COc1ccc(-c2csc(C)n2)cc1OC,0.9
CN(C)c1ccc(C2C3C(=O)NC(=O)C3ON2c2ccc(Cl)cc2)cc1 (configuration not stated),1.3
COCCNC(=O)c1ccc(CS(=O)(=O)c2ccc(C)cc2)o1,0.1
Cc1ccc(-n2nc(C)c3c(C)c(CCC(=O)NC(C)c4ccccc4)c(C)nc32)cc1 (configuration not stated),0.6
Cc1c(/C(O)=C2\C(=O)C(=O)N(CCN(C)C)C2c2ccco2)cnn1-c1ccccc1 (configuration not stated),i
COc1cc2c(cc1OC)C(c1cccs1)N(C(=O)C(C)C)CC2 (configuration not stated),i
Cc1cc(-n2nc(C)cc2C)n2ncc(-c3ccccc3)c2n1,i
CCOC(=O)C1CCCN(C(=O)/C=C/c2cccc([N+](=O)[O-])c2)C1 (configuration not stated),1.4
Cc1ccc(-c2nc3ccccc3[nH]2)cc1N,i
O=C(Nc1ccc2c(c1)oc1ccccc12)c1ccncc1,i
O=C1CC2(CCCCC2)Oc2ccc(O)cc21,0.5
CC(C)Sc1nc2c(cnn2-c2ccccc2)c(=O)[nH]1,0.7
Cc1cccc(/C=N\NC(=O)c2sccc2-n2cccc2)c1,0.5
CCCCN=C(N)/C(C(=O)OCC)=C(\O)c1ccc(OC)cc1,i

# Structures from the list above that have a COOH group:
SMILES,H5N1 antiviral
COc1cc(OC)cc(-c2cc3nc(C)c(CCC(=O)O)c(C)n3n2)c1,0.1
O=C(O)c1cc(N2C(=O)C3CC=CCC3C2=O)ccc1NCc1cccnc1 (configuration not stated),i
CC(C)(C)C(=O)NC(=S)Nc1cc(C(=O)O)ccc1Cl,i

# (next part)
SMILES,H5N1 antiviral
CCc1cc([N+](=O)[O-])cc(CC)c1N,1.4
COC(=O)C1=C(C)OC(N)=C(C#N)C1c1cccnc1 (configuration not stated),i
C=CCOC(=O)Nc1c(C(=O)OC)[nH]c2ccccc12,0.1
CCOC(=O)COc1cc2c3c(c(=O)oc2cc1C)CCCC3,i
COc1ccc(S(=O)(=O)Cc2ccc(C(=O)NCCCN(C)c3ccccc3)o2)cc1,i
CCOCCCNS(=O)(=O)Cc1ccccc1,i
O=C(O)CCC(=O)Nc1ccc(C(=O)OC2CCCCC2)cc1,i
Cc1cc(C(C)(C)C)oc1C(=O)N(CC(=O)NC1CCCC1)c1cccc(C(F)(F)F)c1,i
COc1ccc(S(=O)(=O)Nc2ccc(Oc3ncccn3)c(Cl)c2)cc1,i
Cc1ccc(CSCc2nnc(SCC(=O)N3CCN(c4ccccc4)CC3)n2C)cc1,1.9
COc1ccc(S(=O)(=O)N2CCC(C(=O)NCc3ccccn3)CC2)cc1Cl,0.7

# In the list so far, these have fluorine:
SMILES,H5N1 antiviral
CCN1C=C(Cc2ccc(F)cc2)C2=C(C1)C(c1ccc(F)cc1)C(C#N)=C(N)O2 (configuration not stated),i
Fc1cc(Br)ccc1Nc1nc2ccccc2n2nnnc12,0.8
COC(=O)C1=C(N)c2c(F)cccc2C1(C#N)c1ccc(F)cc1 (configuration not stated),2.4
N/C(=N\OC(=O)c1ccc(F)cc1)c1ccccc1,i
Fc1ccccc1CCNc1nnnn1-c1ccccc1,i
COc1cccc(-c2cc(C(=O)Nc3cnn(Cc4ccc(F)cc4)c3)no2)c1,i
CCNc1nc(NCC)n2c(SCc3ccc(F)cc3)nnc2n1,3.8
Cc1cc(C)n(-c2nncn2/N=C/c2ccccc2F)n1,i
CCC(C)NC(=O)C1CCCCN1S(=O)(=O)c1ccc(F)cc1 (configuration not stated),0.9
Cc1cc(C(C)(C)C)oc1C(=O)N(CC(=O)NC1CCCC1)c1cccc(C(F)(F)F)c1,i
